Screening data as filed in PubChem BioAssay.
rRNA inh HTS – inhibits bacterial ribosomal RNA function over humanized ribosomes. AID 720706. 1.6% of 350,000 active. GFP signal change (wild-type ribosome), % (concentration not given with the values). E. coli WT GFP vs humanized-ribosome RFP mutants, fluorescence, 24 h; stronger effect = lower value; DMSO median 0, no signal -100;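 active = significant combined selectivity score with lowered wild-type GFP, culture density cut under 30%, mutant RFP and density less affected; inactive = any of these conditions unmet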; note: one replicate is shown; some compounds called inactive have numbers as strong as hits
HNF4A DNA FP – change in binding of human HNF4 alpha to DNA. P41235. HNF4a-FITC DNA binding, fluorescence polarization, 1 h. activity change, % at 10 µM. 0.3% of 360,000 active; in the data active = activity change above about 30%, passing the limit was not always enough;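 note: controls were the assay level and a saturating level of protein; the project sought stronger binding though the title names inhibitors; some compounds called inactive have numbers as strong as hits; positive values seem to mean higher polarization but the record does not say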
Target sequence (P41235 whole entry, looked up): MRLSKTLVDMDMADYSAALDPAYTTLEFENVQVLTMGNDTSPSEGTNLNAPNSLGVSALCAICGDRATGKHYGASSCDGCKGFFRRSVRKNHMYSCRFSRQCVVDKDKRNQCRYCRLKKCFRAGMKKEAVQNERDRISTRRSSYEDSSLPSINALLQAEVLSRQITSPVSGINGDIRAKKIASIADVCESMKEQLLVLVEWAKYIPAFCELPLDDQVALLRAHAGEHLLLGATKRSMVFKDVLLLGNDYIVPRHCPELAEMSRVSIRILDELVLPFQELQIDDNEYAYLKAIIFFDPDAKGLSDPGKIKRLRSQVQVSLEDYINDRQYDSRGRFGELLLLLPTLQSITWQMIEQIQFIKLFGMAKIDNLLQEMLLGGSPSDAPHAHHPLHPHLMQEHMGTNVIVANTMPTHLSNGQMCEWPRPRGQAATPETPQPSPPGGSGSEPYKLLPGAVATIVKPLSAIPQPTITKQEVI
Vif A3G – HIV-1 Vif–A3G interaction blockers – biochemical, TR-FRET, GST-Vif 1-94, biotin-A3G peptide, dose response retest, primary screen (AID 1117319) | TR-FRET GST-Vif / biotin-A3G peptide binding; higher % means a stronger effect; test concentration not given here; strong numbers were not always called active | one-dose inhibition, %; IC50 in µM for titrated hits | 0.57% of 260,000 active;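 active = above the screen mean plus three standard deviations and confirmed in dose response; inconclusive = results disagree or hit not tested in dose response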;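 note: Vif residues 1-94 fused to GST binding biotinylated APOBEC3G peptide 110-148; 0% = full assay without inhibitor and 100% = GST in place of GST-Vif; retest series ran down from 100 µM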
Ecoli growth – blocks Escherichia coli growth | OD600, 23 h; stronger effect = lower value | OD600 absorbance (no concentration beside the values) | 0.21% of 330,000 active;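 active = OD600 absorbance below the run mean of sample wells minus 3.6 SD, in any replicate, cut at about 0.56 in these data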;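 note: stock transfer was 300 nL into about 60 µL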
AF4-AF9 inh – blocks AF4 peptide binding to human AF9; P42568; AlphaScreen, biotin-AF4 peptide binding to FLAG-AF9; inhibition, % at 10 µM; 0.47% of 350,000 active; AID 651704;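 active = every replicate reaching a set inhibition limit, whatever the replicate mean, cut at about 25% in these data; inconclusive = mean inhibition reaches that limit but some replicates miss it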;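 note: 0% = plate neutral control median and 100% = total signal loss; the record names both 10 and 1 µM as test concentration; the first replicate is given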
FGF22 binding – binders of recombinant human FGF22 by thermal shift | SYPRO orange fluorescence; percent of sucrose octasulfate shift, DMSO zero | calls only at 9.99 µM | 1.5% of 340,000 active;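 active = melting point raised past a set limit in the mean and every replicate; inconclusive = no clear call; three in four hits are not shown here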
Target sequence (Q9HCT0 whole entry, looked up): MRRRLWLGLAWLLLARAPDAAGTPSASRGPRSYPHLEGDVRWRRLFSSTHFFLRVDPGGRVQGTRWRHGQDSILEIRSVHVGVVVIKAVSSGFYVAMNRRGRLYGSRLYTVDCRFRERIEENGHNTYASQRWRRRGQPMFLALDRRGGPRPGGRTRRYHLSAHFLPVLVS
ALR inh – inhibitors of human sulfhydryl oxidase ALR; inhibition, % (no concentration beside the values); AID 485317; purified ALR, DTT oxidation, H2O2 HRP-luminol luminescence; 3.8% of 290,000 active;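 active = mean and each replicate at 75% or more; inconclusive = only one of the two met; inactive = neither met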;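 note: stock transfer was 7.5 nL into about 7.5 µL; 0% = neutral wells and 100% = wells with inactivated enzyme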
Target sequence (P55789 whole entry, looked up): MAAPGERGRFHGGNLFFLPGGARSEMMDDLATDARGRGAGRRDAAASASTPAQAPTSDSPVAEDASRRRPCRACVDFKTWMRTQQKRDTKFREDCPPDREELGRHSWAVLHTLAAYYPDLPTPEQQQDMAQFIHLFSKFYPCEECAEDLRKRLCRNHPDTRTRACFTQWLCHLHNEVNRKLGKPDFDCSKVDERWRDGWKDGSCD
rRNA inh HTS OD600 – further read-out of rRNA inh HTS, marked with its call; OD600 change, %; measured here: OD600 growth;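 optical density of the mix in the first replicate; 0 = DMSO median and -100 = no signal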
rRNA inh HTS RFP – second read-out of rRNA inh HTS, no call of its own (marks repeat the call); RFP signal change, %; measured here: RFP humanized mutant strains;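 first replicate; 0 = DMSO median and -100 = no signal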
* = called active by the depositor; i = inactive; ? = inconclusive; · = no result given.

rRNA inh HTS	rRNA inh HTS OD600	rRNA inh HTS RFP	HNF4A DNA FP	Vif A3G	canonical_smiles	Ecoli growth	AF4-AF9 inh	FGF22 binding	ALR inh
4.0	6.0	-1.5	1.9	2.9%	COC(=O)N/N=C(\C)c1ccco1	·	-1.1	·	-5.9
3.6	15.4	-3.5	1.2	4.8%	C=CCNC(=O)COC(=O)c1cc(S(=O)(=O)N2CCOCC2)ccc1N1CCCCC1	0.722	·	·	-1.9
-2.5	2.3	-0.2	·	·	COc1ccc(S(=O)(=O)Nc2ccc3c(c2)C(=O)N([C@H](C)CO)C[C@H](C)[C@@H](CN(C)S(C)(=O)=O)OCCCC[C@H](C)O3)cc1	·	-2.8	i	·
·	·	·	0.4	13.2%	Cc1c(Br)c([N+](=O)[O-])nn1CC(=O)Nc1ccc(Cc2ccncc2)cc1	0.672	·	·	-27.3
0.0	6.4	-0.5	·	·	CN(C)CC(=O)N[C@@H]1C=C[C@@H](CC(=O)NCc2ccc(Cl)cc2)O[C@@H]1CO	·	-1.8	i	·
0.4	-1.0	-1.5	·	·	C[C@@H]1CN([C@H](C)CO)C(=O)c2cc(C#Cc3ccccc3)cnc2O[C@@H]1CN(C)C(=O)c1ccccn1	·	-10.5	i	·
-59.9	-76.8	-17.5	9.1	·	CCCCN(C=O)c1c(CC)nc2c(OCCOc3ccc(F)cc3)cccn12	·	1.7	i	·
-0.5	0.0	13.2	·	·	C[C@H]1CN([C@@H](C)CO)S(=O)(=O)c2ccc(C#Cc3ccccn3)cc2O[C@H]1CN(C)Cc1cccc(F)c1	·	-0.2	i	·
3.2	10.7	6.4	-3.1	18.4%	O=C(/C(=C/O)N=Nc1ccccc1)c1ccc(Cl)cc1	·	5.1	·	2.7
-8.9	-17.5	-0.6	·	·	CCC(=O)N(C)C[C@H]1Oc2cc(-c3ccccc3C)ccc2S(=O)(=O)N([C@H](C)CO)C[C@H]1C	·	5.5	i	·
·	·	·	-3.2	?	O=C(Nc1ccc(S(=O)(=O)N2CCCCCC2)cc1)c1ccco1	0.705	·	·	-3.1
-19.0*	6.4*	-7.5*	-2.8	-4.7%	O=C(NCc1ccc2c(c1)OCO2)C1CCCN1S(=O)(=O)c1ccc(Cl)cc1 (configuration not stated)	0.701	2.3	i	-4.6
5.9	6.7	-1.5	1.7	0.9%	CN(Cc1nccn1C)C(=O)CC1C(=O)NCCN1Cc1ccc(F)cc1Cl (configuration not stated)	0.638	-1.5	i	-2.3
-0.9	1.3	0.2	-0.6	5.3%	CC(C)c1ccc(NC(=O)COc2nncc3ccccc23)cc1	0.613	-2.9	i	-2.2
12.7	10.8	0.5	-4.3	·	COc1ccc(CCN2C(=O)NC(NS(=O)(=O)c3ccc(NC(C)=O)cc3)(C(F)(F)F)C2=O)cc1OC (configuration not stated)	0.68	0.5	i	-7.5
·	·	·	0.2	-1.1%	Cc1cc(S(=O)(=O)NCc2ccc(S(N)(=O)=O)cc2)c(C)s1	0.683	·	·	-2.6
-1.3	-1.6	1.4	·	·	N#C[C@H]1[C@@H](c2ccc(C#CC3(O)CCCC3)cc2)[C@H](CO)N1C(=O)C1CC1	·	1.1	i	·
·	·	·	2.3	-3.1%	C=CCNc1ncnc2c1[nH]c1ccc(Cl)cc12	0.474*	·	·	48.0
·	·	·	3.3	-1.5%	COc1ccc(S(=O)(=O)NC(C)C)cc1C(=O)NC1CCCCC1	0.733	·	·	-0.6
3.3	10.4	2.1	4.0	-1.4%	CC1(C(=O)NNC(=S)NCC2CCCO2)CC1(Cl)Cl (configuration not stated)	0.688	-0.6	i	28.9
-3.6	-18.5	3.1	·	·	C[C@H]1CN([C@@H](C)CO)C(=O)c2cc(NC(=O)NC3CCCCC3)ccc2O[C@@H]1CN(C)Cc1ccc(Cl)c(Cl)c1	·	0.4	i	·
8.1	14.4	-5.7	·	·	O=C(O)CCCCN1C(=O)C=CC1=O	·	-3.7	i	·
0.7	8.2	-4.8	3.1	·	COC(=O)CCCn1cc(CN2CC(N3CCN(C)CC3)CS2(=O)=O)nn1 (configuration not stated)	·	-3.7	i	·
2.6	5.4	-0.6	·	·	C[C@@H]1CCCCO[C@@H](CN(C)C(=O)c2ccncc2)[C@@H](C)CN([C@H](C)CO)C(=O)c2cc(NS(=O)(=O)c3ccccc3)ccc2O1	·	-3.6	i	·
-12.8	-41.5	-6.0	2.6	-4.9%	O=S(=O)(NCCc1ccc(F)cc1)c1cc(C(F)(F)F)ccc1Br	0.693	-5.0	i	·
-16.2	-17.1	3.1	-2.6	-4.2%	COc1ccccc1NS(=O)(=O)c1ccc(C(=O)N2CCCC(C(F)(F)F)C2)cc1 (configuration not stated)	0.63	-1.9	i	-7.6
2.8	3.8	1.1	·	·	C[C@H]1CN([C@@H](C)CO)C(=O)Cc2cc(NC(=O)Nc3cccc4ccccc34)ccc2O[C@H]1CN(C)C(=O)Nc1ccc(C(F)(F)F)cc1	·	0.9	i	·
·	·	·	4.9	16.7%	Cc1ccnc(SCc2cc(=O)c(OC(=O)c3ccco3)co2)n1	0.682	·	·	58.1
·	·	·	1.2	0.1%	CC(C)c1nc(N2CCOCC2)c(C#N)c2c1CCC2	0.677	·	·	-6.2
-21.9	-21.8	20.9	-6.0	·	COc1ccc(/C=N/Nc2cc(C)nc3ccc(Br)cc23)cc1	·	13.1	i	6.2

Next section:
rRNA inh HTS	rRNA inh HTS OD600	rRNA inh HTS RFP	HNF4A DNA FP	Vif A3G	canonical_smiles	Ecoli growth	AF4-AF9 inh	FGF22 binding	ALR inh
-0.3	6.8	-2.9	-2.6	·	COc1ccc(C2(c3ccc(OC)cc3)NC(=O)N(CC(=O)N(C)C)C2=O)cc1	0.664	1.8	i	-1.2
·	·	·	-1.4	4.5%	O=C(Nc1nc2ccccc2[nH]1)c1ccc(Cl)c(S(=O)(=O)N2CCCC2)c1	·	·	·	48.0
5.4	8.1	-1.0	1.5	·	CN(CCOc1ccc(Cl)cc1)CC(O)c1ccccc1 (configuration not stated)	0.66	-2.2	i	·
0.9	-8.8	-1.8	-0.4	-9.3%	Cc1sc2nc(-c3cccs3)oc(=O)c2c1C	0.698	4.8	i	12.0
12.1	4.7	-8.2	2.2	-0.8%	Cc1cc(NC(=O)CSc2nc3ccccc3c(=O)n2-c2ccccc2)no1	0.724	·	·	0.5
5.1	8.1	1.8	-3.9	-2.4%	CCCCCOc1ccc(/C=C/c2c([N+](=O)[O-])c(=O)n(C)c(=O)n2C)cc1	0.694	0.3	i	·
11.3	8.9	1.6	1.2	-1.1%	CCOC(=O)c1cc(C#N)c(N2CCN(C(=O)c3ccccc3)CC2)nc1C(F)(F)F	0.665	-0.1	i	-22.4
-2.2	-35.5	1.6	-1.4	·	Cc1ccc(NC(=O)c2ccc(=O)[nH]n2)cc1S(=O)(=O)Nc1ccc(SC(F)F)cc1	0.663	-1.2	i	98.7*
-5.8	-11.9	1.5	1.7	-0.3%	COc1ccccc1Oc1nc2ccccn2c(=O)c1/C=C(\C#N)C(=O)Nc1c(C)n(C)n(-c2ccccc2)c1=O	0.683	2.6	i	·
-4.8	-9.2	2.7	·	·	COc1cccc(S(=O)(=O)Nc2ccc3c(c2)[C@H]2C[C@H](CC(=O)NC4CCCCC4)O[C@@H](CO)[C@H]2O3)c1	·	0.9	i	·
·	·	·	-2.7	·	CCNC(=O)CCSc1nc2cc(Cl)ccc2o1	0.747	·	·	90.3*
3.2	-2.7	5.0	-2.5	·	COc1cccc(CN2CCN(c3nc4nonc4nc3N3CCCCC3)CC2=O)c1	0.638	15.4	i	-2.3
-1.7	-5.9	-3.6	·	·	C[C@@H]1CN([C@H](C)CO)C(=O)c2cc(NS(=O)(=O)c3cn(C)cn3)ccc2O[C@H]1CN(C)Cc1ccc(C(F)(F)F)cc1	·	-2.2	i	·
4.5	-4.3	16.6	4.4	1.9%	C/C(=N\NS(=O)(=O)c1ccc(C(C)(C)C)cc1)c1ccccc1	·	-0.9	i	·
7.2	17.3	0.2	-1.2	·	CCOC(=O)c1sc(-c2ccccc2)cc1NC(=O)Nc1ccccc1	0.752	-1.4	i	·
·	·	·	0.5	>100µM*	COc1ccc(CCN2C(=O)c3cccnc3C2=O)cc1OC	0.734	·	·	-5.4
9.4	1.5	-8.8	-1.6	4.8%	COc1cccc(NC(C)C(=O)Nc2cc([N+](=O)[O-])ccc2Cl)c1 (configuration not stated)	0.654	4.8	i	-8.0
·	·	·	2.3	-2.4%	CS(=O)(=O)c1cnc2c(-c3ccc(F)cc3)cnn2c1N	0.691	·	·	-26.5
-27.2	-32.4	-3.0	2.4	-3.5%	Cc1ccc(C(C)C)c(OCc2n[nH]c(=S)o2)c1	0.641	-5.8	i	·
·	·	·	-1.6	20.4%	CC(C)(C)n1nc2c(c1NC(=O)c1ccco1)CS(=O)C2 (configuration not stated)	0.684	·	·	-3.3
·	·	·	-1.6	-14.8%	COc1cccc(-c2nnc(NC(=O)Cc3cccs3)s2)c1	0.709	·	·	2.3
5.4	-5.2	-1.7	5.1	·	COc1cc2c(c(OC)c1OC)-c1ccc(NC(=O)c3ccccc3)c(=O)cc1[C@@H](NC(C)=O)CC2	0.681	2.8	i	0.3
22.5	22.4	22.2	-8.8	-2.6%	COC(=O)CCC(=O)OC1(C)C(=O)C=C2C=C(C3CC3)N(CCc3ccccn3)C=C2C1=O (configuration not stated)	0.682	1.9	i	·
2.2	-1.9	-1.0	-0.6	·	O=C(CN(C(=O)c1ccc(Cl)cc1)C1CCCCC1)Nc1ccc(Cl)c([N+](=O)[O-])c1	0.678	-4.3	i	0.9
·	·	·	2.2	11.7%	Cc1ccc(S(=O)(=O)n2nc(-c3ccco3)nc2SCc2ccccc2)cc1	0.709	·	·	0.8
6.5	8.6	0.6	-1.4	-3.1%	Cc1ccc2nc(SCC(=O)Nc3ccc(F)cc3)nc(=O)n2c1	0.635	-21.4	i	2.5
·	·	·	-2.5	0.2%	CN1CCN(NC(=O)c2ccc(F)cc2)CC1	0.704	·	·	17.6
4.3	1.5	5.1	-1.7	-22.7%	COc1cc(C(=O)NCCNc2nc3c(C)cccc3cc2C#N)cc(OC)c1OC	·	-6.3	i	·
-0.2	8.0	1.5	-2.1	?	Cc1c(Cl)cccc1NC(=O)CCCN1C(=O)c2cccnc2C1=O	0.677	0.7	i	-4.3
-5.5	-13.8	-2.6	11.6	-2.4%	COc1ccc(Nc2c3c(nc4ccc(C)cc24)CCC3)cc1	0.641	11.9	i	·

These rows are one share of the data; count on the stated rates, not on these rows.
